Bioassay records deposited in PubChem BioAssay by National Center for Advancing Translational Sciences (NCATS).
Cruzain inh Det: cruzain (T. cruzi) inhibition with detergent; Potency, µM, inactives show max response, negative = inhibition, usual class: inhibitors; P25779; purified cruzain, Z-FR-AMC fluorescence, 0.01% Triton; AID 1478; 200,000 tested, 0.43% active; active = well fitted curve in the direction sought with a large enough effect; inconclusive = small, poorly fitted or top-dose-only effect, or another doubt; inactive = no such curve, though single readings can be large; an effect the other way counts as inactive or inconclusive;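 note: plate controls were neutral wells for no effect and buffer without enzyme for full effect; nearly all actives have a fitted effect of over 40% in size; top concentration of the series not given in the record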
Target sequence (P25779 123-467 limits assumed): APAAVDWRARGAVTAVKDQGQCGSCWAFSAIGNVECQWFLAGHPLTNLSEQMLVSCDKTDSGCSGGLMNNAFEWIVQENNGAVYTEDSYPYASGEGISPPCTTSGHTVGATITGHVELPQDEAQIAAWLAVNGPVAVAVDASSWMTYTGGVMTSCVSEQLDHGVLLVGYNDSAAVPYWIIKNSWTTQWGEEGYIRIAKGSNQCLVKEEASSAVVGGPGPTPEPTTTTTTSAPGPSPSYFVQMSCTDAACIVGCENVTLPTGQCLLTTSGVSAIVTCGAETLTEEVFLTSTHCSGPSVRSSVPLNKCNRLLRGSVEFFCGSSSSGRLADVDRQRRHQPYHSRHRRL
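Enzyme 1.5 nM, Z-FR-AMC 2 uM, NaOAc 100 mM pH 5.5, DTT 5 mM, Triton X-100 0.01%; 15 min RT compound preincubation; kinetic ex360/em450, 60 s delta.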
2A StopGo: lowers the luciferase signal of an FMDV 2A StopGo reporter. human cells with a luciferase reporter of 2A StopGo recoding; control for the full effect not named in the record. Potency, µM (doses to about 57.9 µM), for inactives: at the highest dose signal change, negative = less light. 410,000 tested, 1.2% active; active = well fitted falling curve with a large enough effect; inconclusive = small, poorly fitted or top-dose-only effect; inactive = no such curve, though single readings can be large or run the other way; tested in HEK293T cells; note: % is set by controls: 0 for no effect and ±100 for the full control effect; nearly all actives have a fitted effect of over 45% in size; luciferase light after 4 h
RE007 growth inh: less growth of the S. pombe RE007 Vpr strain; S. pombe RE007 Vpr strain, BacTiter-Glo ATP luminescence, 24 h; control for the full effect not named in the record; Potency, µM (highest dose often 92.2 µM), inactives show at the highest dose activity change, negative = less growth; 360,000 tested, 0.21% active; AID 651644; active = well fitted falling curve with a large enough effect; inconclusive = small, poorly fitted or top-dose-only effect; inactive = no such curve, though single readings can be large or run the other way;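 note: % is set by controls: 0 for no effect and ±100 for the full control effect; nearly all actives have a fitted effect of over 50% in size; the assay follows cell death caused by Vpr and the record does not say whether a fall means rescue or toxicity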
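Fission yeast RE007 carrying one integrated HIV-1 vpr copy, seeded at OD 0.01 in PMG+AL medium with 23 nL pinned compound. Grown 24 h at 30 degrees; viability read by BacTiter-Glo luminescence after 5 min.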
MARV entry inh: Marburg virus entry inhibition. Marburg virus pseudotyped entry inhibition, cell reporter; control for the full effect not named in the record; about a third of the inactives were read at about 46 µM. Potency, µM (titrated, usually from 37.8 µM), for the others: top-dose activity change, negative = inhibition, hits mostly inhibitors. 300,000 tested, 1.8% active. AID 540276; active = well fitted inhibition curve with a large enough effect; inconclusive = small, poorly fitted or top-dose-only effect, or effect the other way; inactive = flat fitted curve, though single readings scatter; tested in HEK293 cells; about a fifth of its hits are not listed in these tables; note: % is set by controls: 0 for no effect and ±100 for the full control effect; luciferase read-out
Cruzain inh noDet: blocks cruzain activity in detergent-free assay; purified cruzain, Z-FR-AMC fluorescence, no detergent; Potency, µM, without a hit: max response, negative = inhibition, usual class: inhibitors; 200,000 tested, 2.3% active; active = well fitted curve in the direction sought with a large enough effect; inconclusive = small, poorly fitted or top-dose-only effect, or another doubt; inactive = no such curve, though single readings can be large; an effect the other way counts as inactive or inconclusive;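 note: plate controls were enzyme without inhibitor for no effect and buffer without enzyme for full effect; nearly all actives have a fitted effect of over 40% in size; top concentration of the series not given in the record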
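Detergent-free condition (0.00005% Triton X-100) in acetate buffer pH 5.5 with DTT. 1.5 nM enzyme and compound were pre-mixed 15 min, then 2 uM Z-FR-AMC substrate added; reaction progress from fluorescence change between first and third reads (60 s).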
NS1 inh: blocks influenza NS1 protein function; 270,000 tested, 0.4% active; Potency, µM (titrated, usually from 46.1 µM), for inactives: top-dose activity, positive = more growth; S. cerevisiae slowed by influenza A NS1, growth recovery by OD600; note: actives are rising curves; nearly all actives have a fitted effect of over 50% in size
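Recovery from NS1-induced slow growth read by OD600 in budding yeast switched to galactose assay medium (pH 6.0, -URA) at 1:100 dilution. Compound 23 nl per well; the matching strain lacking NS1 serves as control.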
SARS PLpro yeast: blocks SARS-CoV papain-like protease in a yeast assay. 330,000 tested, 0.19% active. AID 485353. Potency, µM (series often up to 32.9 µM), for inactives: at the top dose activity, positive = growth rescue. S. cerevisiae expressing SARS-CoV PLpro, growth rescue; control for the full effect not named in the record; note: 0% is about no effect; nearly all actives have a fitted effect of over 55% in size; growth read by luminescence after 48 h
LASV entry inh: blocks Lassa virus binding to or entry into cells | Lassa virus pseudotype entry inhibition, cell reporter; control for the full effect not named in the record | AID 540256 | 300,000 tested, 1.2% active | Potency, µM (titrated, usually from 37.9 µM), without a hit: at the highest dose activity change, negative = inhibition, hits mostly inhibitors; active means well fitted inhibition curve with a large enough effect; inconclusive means small, poorly fitted or top-dose-only effect, or effect the other way; inactive means flat fitted curve, though single readings scatter; tested in HEK293 cells; note: % is set by controls: 0 for no effect and ±100 for the full control effect; nearly all actives have a fitted effect of over 50% in size; luciferase read-out
* marks the source's active call; other numbers are inactive results; ? = inconclusive; . = not tested or not shown; & = joins results of further samples; [ ] = another dose, or the depositor's remark. Unless noted, calls come from the whole dose curve; as a rule, active means well fitted rising curve with a large enough effect; inconclusive means small, poorly fitted or top-dose-only effect; inactive means no such curve, though single readings can be large or run the other way. Potency is the fitted concentration of half-maximal effect.

Each structure is followed by: Cruzain inh Det | 2A StopGo | RE007 growth inh | MARV entry inh | Cruzain inh noDet | NS1 inh | SARS PLpro yeast | LASV entry inh
CCCCC(=O)Oc1c(S(=O)(=O)c2ccc(C)cc2)c(C)nn1C(C)(C)C
 : . | -13% | 8% | ? | . | 7% | -6% | ?
COc1cc(NC(=O)C(CC(C)C)NS(=O)(=O)c2ccc3c(c2)CCCC(=O)N3)cc(OC)c1 (stereo not drawn)
 : -0.5% | 1% | . | . | -1% | . | . | -22%[46.1 µM]
CS(=O)(=O)N(CC(=O)Nc1cccc([N+](=O)[O-])c1)c1ccccc1
 : . | 10% | 15% | . | . | 1% | 1% | .
CCOc1ccc(C(=O)N(Cc2ccc(C(C)C)cc2)Cc2ccco2)cc1
 : -11% | -15% | . | 2%[46.1 µM] | -7% | . | . | ?
N=c1c(C(=O)NCc2ccc(F)cc2)cc2c(=O)n3ccccc3nc2n1Cc1cccnc1
 : ? | -6% | -8% | -3% | ? | 9% | -5% | 1%
O=c1[nH]c(SCc2ccc(Cl)cc2)nc2ccccc12
 : . | 9% | -4% | . | . | 6% | 1% | .
O=C(CCC(=O)N(CC(=O)NC1CCCCC1)Cc1cccs1)Nc1nccs1
 : . | 4% | -6% | . | . | 6.3µM* | 1% | .
CC1CCCN(C(=O)C2CCN(c3ncnc4c3nc3n4CCCCC3)CC2)C1 (stereo not drawn)
 : . | -22% | -1% | . | . | -38% | -2% | .
C/C(=C1/SC(N2CCOCC2)=NC1=O)c1ccc(Cl)cc1
 : -6.5% | -17% | 5% | 13% | -1% | 3% | 2% | -29%
COc1ccccc1NC(=O)C(C)Sc1nnc2ccc3ccccc3n12 (stereo not drawn)
 : -1.1% | -15% | . | 7%[46.1 µM] | 3% | . | . | 16%[46.1 µM]
CN(C)Cc1c(O)ccc2c(=O)c(-c3ccccc3Cl)coc12
 : . | 7% | -4% | 3% | . | 8% | 3% | ?
CC1CCc2c(sc(NC(=O)C(=O)NCc3ccco3)c2C#N)C1 (stereo not drawn)
 : 5.0% | 12% | 8% | 8% | ? | 5% | -10% | -1%
Cc1noc(NS(=O)(=O)c2ccc(N/C=C/C(=O)c3ccccc3)cc2)c1C
 : -9.2% | 36%[activator] | -19% | 14% | 7% | -130% | -7% | 1%
COc1ccc(OC)c(NC(=O)c2ccc(Cl)cc2)c1
 : . | 10% | -10% | -30%[46.1 µM] | . | -10% | -1% | -19%
Cc1nc(N2CCOCC2)c2c(C)c(C(=O)Nc3ccc(C(F)(F)F)cc3)sc2n1
 : . | ? | -21% | ? | . | . | -11% | 2.2µM*
CCOc1ccc(CCNC(=O)c2c(C)noc2C)cc1OCC
 : . | -6% | 6% | 14% | . | . | -10% | 2%
COC(/C(C)=C/C=C/C(C)=C/c1coc(C)n1)C(C)C1CC(O)C2(C)OC2C=CC(C)C2CC(CC(=O)O2)CC2OC2C(=O)O1 (stereo not drawn)
 : . | -26% | 14% | 6% | . | . | . | 1%
CCC(COC)NC(=O)CCc1nnc(Cc2c[nH]c3ccccc23)o1 (stereo not drawn)
 : . | 0% | 1% | . | . | 24% | -4% | .
COc1c(Cl)cc(-c2noc(C)c2C(=O)NCc2ccc3c(c2)OCO3)cc1Cl
 : -5.2% | -25% | -10% | 19%&19% | -3% | -13% | -17% | 18%
CSc1cc(-c2ccc(Cl)cc2)c(C(=O)NN)s1
 : -5.9% | 2% | -13% | ? | 6% | ? | 5% | 11%
Nc1cc(N)nc(SCC(=O)Nc2ccc(Br)cc2Cl)n1
 : -3.4% | 9% | ? | ? | 3% | 2% | -2% | 22%
NC(=S)NC(=O)c1ccccc1
 : . | -6% | 1% | 23%[46.1 µM] | . | 3% | 0% | 17%[46.1 µM]
Cc1nn(C(C)C(=O)Nc2sc3c(c2C#N)CCCC3)c(C)c1[N+](=O)[O-] (stereo not drawn)
 : 0.2% | . | 4% | -14% | 1% | 14% | -3% | ?
O=[N+]([O-])c1ccc(-[n+]2nc(-c3ccccc3)nn2-c2ccccc2)cc1
 : . | -24% | -14% | -12%[46.1 µM] | . | 5% | 18% | -13%[46.1 µM]
Cc1cccc(-c2nc(CSCC(=O)NCCc3ccc(Cl)cc3)c(C)o2)c1
 : -4.7% | 0% | . | -16%[46.1 µM] | ? | . | . | 4%[46.1 µM]
Cn1cc(/C=N/n2cnc3scc(-c4ccc(Cl)cc4)c3c2=O)c2ccccc21
 : -3.7% | -24% | -10% | ? | 25µM* | -1% | 6% | ?
N/C(=N\OC(=O)CCn1cccc(C(F)(F)F)c1=O)c1ccc(Cl)cc1
 : . | -23% | 15% | ? | . | 0% | 0% | 12%[46.1 µM]
O=C(CCNC(=O)C1CCN(S(=O)(=O)c2ccc(F)cc2)CC1)NC1CC1
 : . | -15% | 1% | . | . | -6% | 2% | .
O=C1CCC(C(=O)OCc2nnc(-c3ccc(Cl)cc3)o2)=NN1
 : . | 21% | 21% | 26% | . | . | 2% | 3%
O=C(CN1CCN(C(c2ccccc2)c2ccccc2)CC1)N1CCN(c2ccccc2)CC1
 : . | -19% | -4% | . | . | -1% | 0% | .

Record cards, as listed above:
Listed for Cc1noc(NS(=O)(=O)c2ccc(N/C=C/C(=O)c3ccccc3)cc2)c1C → Cruzain inh Det = -9.2%; 2A StopGo = 36%[activator]; RE007 growth inh = -19%; MARV entry inh = 14%; Cruzain inh noDet = 7%; NS1 inh = -130%; SARS PLpro yeast = -7%; LASV entry inh = 1%
Listed for N/C(=N\OC(=O)CCn1cccc(C(F)(F)F)c1=O)c1ccc(Cl)cc1 → Cruzain inh Det = .; 2A StopGo = -23%; RE007 growth inh = 15%; MARV entry inh = ?; Cruzain inh noDet = .; NS1 inh = 0%; SARS PLpro yeast = 0%; LASV entry inh = 12%[46.1 µM]

Continuation.
Each structure is followed by: Cruzain inh Det | 2A StopGo | RE007 growth inh | MARV entry inh | Cruzain inh noDet | NS1 inh | SARS PLpro yeast | LASV entry inh
O=C(CCCCCNC(=O)c1ccccc1)N/N=C/c1ccco1
 : . | -5% | -16% | -10%[46.1 µM] | . | . | 4% | 18%[46.1 µM]
CCOc1ccccc1NC(=O)CSc1nc2ccccc2nc1N1CCCC1
 : . | -15% | -12% | . | . | 23% | 2% | .
COc1ccc(OC)c(NC(=O)Cn2c(=O)n(Cc3ccccc3)c(=O)c3ccccc32)c1
 : -4.7% | -26% | . | ? | -9% | . | . | -22%[46.1 µM]
COc1ccc(CN(CC2CCCO2)C(=O)CN2C(=O)COc3ccccc32)cc1OC (stereo not drawn)
 : -0.7% | -15% | -23% | 22% | 26% | 2% | -1% | -9%
Cc1ccc(-n2nc(C)c3c(C(F)(F)F)cc(-c4cccnc4)nc32)cc1C
 : 0.9% | 2% | . | 3%[46.1 µM] | 1% | . | . | 26%[46.1 µM]
CCC(C)c1ccc(C2C3=C(Nc4nc(N)[nH]c(=O)c42)c2ccccc2C3=O)cc1 (stereo not drawn)
 : . | 11% | 3% | . | . | 0% | 0% | .
CCc1ccc(NC(=O)C2CCCN(S(=O)(=O)c3ccc(F)cc3)C2)cc1 (stereo not drawn)
 : -4.3% | ? | . | -28%[46.1 µM] | -14% | . | . | .
O=c1nc2n(c3ccc([N+](=O)[O-])cc13)CCCCC2
 : . | 4% | -18% | 12%[46.1 µM] | . | -1% | 3% | 1%
Cc1ccc(SCCN)cc1C
 : . | -4% | 10% | -1%[46.1 µM] | . | . | -6% | ?
CC(C)(C)Nc1nc(SCC(=O)Nc2ccccc2)nc(N2CCOCC2)n1
 : . | ? | -5% | ? | . | -5% | -1% | -24%
Fc1ccc(/C=N/NC(=S)Nc2ccc(Cl)cc2Cl)cc1
 : . | 6% | 2% | ? | . | 2% | 1% | -8%
CCCCC(=O)NCc1ccc(F)cc1
 : -1.0% | 1% | 11% | 3% | -5% | 15% | 6% | ?
O=C1CC(c2ccccc2)Cc2nc3nc(C(F)(F)F)nn3cc21 (stereo not drawn)
 : 2.9% | -7% | 15% | -2% | 13% | -2% | 4% | -12%
CC1OC(Nc2ccc(N=Nc3ccccc3)cc2)C(O)C(O)C1O (stereo not drawn)
 : . | -2% | -23% | 10%[46.1 µM] | . | . | -3% | 10%[46.1 µM]
CCCOc1ccc(Cn2c(O)cc(=O)[nH]c2=O)cc1
 : -5.5% | -2% | -3% | -23% | -2% | 7%[9.22 µM] | 9% | ?
Cn1c(=O)oc2cc(S(=O)(=O)N3CCN(c4cccc(Cl)c4)CC3)ccc21
 : 3.3% | -13% | 10% | ? | 9% | -3% | 4% | 13%
CCOC(=O)c1ccccc1NC(=O)c1nn(-c2ccc(C)cc2)c(=O)n(C)c1=O
 : 3.4% | -19% | . | . | -2% | . | . | ?
O=C(CNC(=O)c1ccco1)OC(C(=O)c1ccccc1)c1ccccc1 (stereo not drawn)
 : 6.3µM* | -1% | -15% | -8%[46.1 µM] | 7.9µM* | -21% | ? | 5%
COc1cc(OC)c(NC(=O)C2CCCO2)cc1Cl (stereo not drawn)
 : . | -6% | 8% | . | . | -21% | 20% | .
Nc1c(C(=O)N/N=C/c2cccnc2)cnn1-c1ccccc1
 : -7.4% | 33%[activator] | 7% | 11% | 1% | 17% | 7% | 0%
Cc1ccc(-n2nc3c(N4CCC(C(=O)N5CCN(C)CC5)CC4)nnc(C)c3c2C)cc1
 : . | 8% | -5% | . | . | -4% | 4% | .
O=S1(=O)N=C(N2CCc3ccccc3C2)c2ccccc21
 : -1.3% | 13% | 3% | 17% | -4% | 0% | 2% | 11%

Part of the list above with just RE007 growth inh:
smiles | RE007 growth inh
Fc1ccc(/C=N/NC(=S)Nc2ccc(Cl)cc2Cl)cc1 | 2%
CCCCC(=O)NCc1ccc(F)cc1 | 11%
O=C1CC(c2ccccc2)Cc2nc3nc(C(F)(F)F)nn3cc21 (stereo not drawn) | 15%
CC1OC(Nc2ccc(N=Nc3ccccc3)cc2)C(O)C(O)C1O (stereo not drawn) | -23%
CCCOc1ccc(Cn2c(O)cc(=O)[nH]c2=O)cc1 | -3%
